MT1-MMP act inh – blockers of MT1-MMP proenzyme processing, primary screen, HT1080 RFP-PRO-GFP cells, GFP/RFP fluorescence | Matrix metalloproteinase-14 (Homo sapiens), P50281 | GFP/RFP ratio fluorescence, overnight; percent of plate control window, DMSO zero | GFP/RFP ratio change, % at 20 µM | 360,000 compounds, 0.061% hits | AID 651647, 2012;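 active = GFP/RFP ratio change of at least 30% with cell ATP level not reduced by more than half and red fluorescence within 50% of control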; also: strong numbers were not always called active
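Assay system: HT1080 cells carrying an RFP-PRO-GFP reporter | Dosing: Single dose of 20 µM compound, 1% DMSO final | Incubation: Cells overnight before dosing, compound overnight, 37 °C, 5% CO2 | Evaluation: GFP/RFP fluorescence ratio | Control set: DMSO and RFP-L50D-GFP cell wells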
Yeast UUG start – modulators of yeast start codon fidelity, primary screen, whole organism, S. cerevisiae, single point, plate reader; S. cerevisiae UUG-firefly luciferase reporter, luminescence/redox ratio; activity score, % at 18.7 µM; 350,000 compounds, 0.13% hits;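 active = replicate mean at a twofold rise or more, about +100% in these data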;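 also: firefly luciferase made from a UUG start codon reports start codon fidelity; reporter light over untreated wells divided by growth signal over untreated wells; some hits fall short of that in this replicate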
PABP FP inh – PABP poly(A) RNA binding inhibitors, primary screen, biochemical, fluorescence polarization, uHTS; Polyadenylate-binding protein 1 (Homo sapiens), P11940; inhibition, % at 35 µM; 290,000 compounds, 1% hits;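 active = 50% or more with normal probe brightness, or confirmed in later tests; inconclusive = above 50% with abnormal brightness, or retests that disagree; inactive = below 50% or failed in later tests; about a fifth of its hits are not listed in these tables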;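 also: calls also rest on retests at 20 µM and on dose response follow-up; controls were probe without protein and protein plus probe with vehicle; some compounds called inactive have numbers as strong as hits; many hits fall short of the cut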
Target sequence (P11940 whole entry, looked up): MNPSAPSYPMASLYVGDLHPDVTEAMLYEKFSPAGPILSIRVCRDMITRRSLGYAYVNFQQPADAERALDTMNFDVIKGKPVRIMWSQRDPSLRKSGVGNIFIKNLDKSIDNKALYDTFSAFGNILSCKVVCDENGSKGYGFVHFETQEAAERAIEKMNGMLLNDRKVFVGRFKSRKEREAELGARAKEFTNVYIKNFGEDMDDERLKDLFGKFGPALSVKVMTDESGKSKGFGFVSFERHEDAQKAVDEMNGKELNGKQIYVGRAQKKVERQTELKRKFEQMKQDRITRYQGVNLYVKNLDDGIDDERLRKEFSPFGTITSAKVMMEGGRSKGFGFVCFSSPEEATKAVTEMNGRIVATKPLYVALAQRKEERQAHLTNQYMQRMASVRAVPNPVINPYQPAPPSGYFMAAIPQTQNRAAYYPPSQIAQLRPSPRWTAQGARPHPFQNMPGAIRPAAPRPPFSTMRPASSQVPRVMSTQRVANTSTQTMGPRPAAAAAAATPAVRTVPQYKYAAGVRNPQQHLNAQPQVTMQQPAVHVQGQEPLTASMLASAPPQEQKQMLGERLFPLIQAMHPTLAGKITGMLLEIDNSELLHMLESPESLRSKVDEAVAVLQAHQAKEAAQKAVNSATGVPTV
Env fusion inh – inhibitors of HIV-1 Env-driven cell-cell fusion, primary screen, HeLa-JRFL effector, CEM21 target cells, luciferase; inhibition, % at 12.3 µM; 360,000 compounds, 1.1% hits;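 active = mean replicate inhibition score of at least 50 and every replicate individually at or above 50; inconclusive = only one of the two criteria met; inactive = mean below 50 and not all replicates reaching 50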;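 also: 0% = plate neutral controls and 100% = maraviroc near 300 nM; one replicate is shown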
eIF4H FP inh – human eIF4H binding inhibitors, primary screen, translation initiation inhibitor project, biochemical, uHTS, fluorescence polarization; eIF4H fluorescence polarization binding assay; inhibition, % at 35 µM; 290,000 compounds, 0.94% hits;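 active = 50% or more with normal probe brightness, or confirmed in later tests; inconclusive = above 50% with abnormal brightness, or retests that disagree; inactive = below 50% or failed in later tests; about a fifth of its hits are not listed in these tables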;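 also: calls also rest on retests at 20 µM and on dose response follow-up; 0% = protein and probe with vehicle and 100% = probe without protein; strong numbers were not always called active; many hits fall short of the cut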
CSC inhib – cancer stem cell viability inhibitors, primary screen, luminescence; cancer stem cell-like cells viability; inhibition, % at 7.5 µM; 300,000 compounds, 1.1% hits; AID 2717, 2010;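 active = mean at 75% or more and at least half the replicates too; inconclusive = mean and replicates disagree; tested in HMLE shEcad cells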;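 also: 0% = median of negative and 100% = median of positive control wells; the first replicate is given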
Rce1 inh – yeast Rce1p protease inhibitors, primary screen, biochemical, fluorescence, cell-free homogeneous. CAAX prenyl protease 2 (Saccharomyces cerevisiae (strain ATCC 204508 / S288c)), Q03530. yeast membranes, quenched prenylated peptide cleavage fluorescence. calls only. 290,000 compounds, 0.27% hits;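 active = fall in fluorescence gain of 50% or more versus controls, with final raw signal at or below 3038400; inconclusive = same 50% fall but final raw signal above 3038400; inactive = fall in fluorescence gain under 50%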;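 also: plate controls were neutral control wells for no effect and wells lacking membranes for full effect; tested at 10 µM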
MT1-MMP act inh RFP – second read-out of MT1-MMP act inh, no call of its own (marks repeat the call); RFP signal change, %; measured here: RFP expression control read;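 0 = vehicle wells; hits needed this value within 50% of zero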
* hit, by the source's call; i = inactive; u = inconclusive; x = not tested or not shown. The list is partial. The share of hits here may be higher or lower than overall.

Codes – A = MT1-MMP act inh; B = MT1-MMP act inh RFP; C = Yeast UUG start; D = PABP FP inh; E = Env fusion inh; F = eIF4H FP inh; G = CSC inhib; H = Rce1 inh
structure: CCOC(=O)C(Cc1c(F)cccc1Cl)c1ccno1 (centres undefined)
  A = 0.8; B = 2.5; C = x; D = 12.4; E = -0.7; F = 6.2; G = -6.7; H = i
structure: S=C(NCc1ccc(Cl)c(Cl)c1)Nc1ccc2c(c1)OCO2
  A = 6.0; B = 5.2; C = x; D = 1.6; E = -21.7; F = -0.4; G = 24.5; H = i
structure: O=C(OC(C(=O)NC1CCCC1)c1ccc(F)cc1)c1ccno1 (centres undefined)
  A = 1.6; B = 3.5; C = -28.9; D = -3.0; E = 15.4; F = 3.3; G = -14.7; H = i
structure: CCC(C)(C)C1CCC(=NNC(=O)c2ccoc2C)CC1 (centres undefined)
  A = -1.1; B = 4.3; C = -4.0; D = -7.4; E = -44.8; F = -3.1; G = 1.7; H = i
structure: CC1C(=O)Nc2ccc(S(=O)(=O)Nc3ccccc3Br)cc2NC1=O (centres undefined)
  A = -4.6; B = 0.8; C = -7.0; D = 19.1; E = -3.4; F = 20.9; G = 5.1; H = i
structure: Cc1c(C)n(CCc2ccccc2)c2ncnc(NN)c12
  A = -2.5; B = -1.4; C = -12.5; D = 11.1; E = -7.5; F = 6.2; G = 1.4; H = i
structure: O=C(O)C(=Cc1ccccc1[N+](=O)[O-])c1ccccc1
  A = 3.1; B = 1.9; C = -16.9; D = x; E = -4.4; F = x; G = x; H = x
structure: COc1cc2c(cc1NC(=O)c1ccccc1-c1ccccc1C(=O)O)-c1ccccc1C2
  A = 0.7; B = 1.5; C = -12.1; D = x; E = -7.4; F = x; G = x; H = x
structure: Cc1cccc(CSc2ncnc3c2cnn3Cc2ccccc2)c1
  A = -5.1; B = -6.9; C = -12.4; D = -5.7; E = u; F = -8.0; G = 9.7; H = i
structure: Cc1cc(OC(C)C(=O)NCC2CCC(C(=O)O)CC2)c2c(C)c(C)c(=O)oc2c1 (centres undefined)
  A = 15.6; B = 6.5; C = -6.7; D = -12.2; E = x; F = 0.1; G = -9.4; H = i
structure: Cc1ccccc1CS(=O)(=O)CCC(=O)NCc1ccc(F)cc1Cl
  A = 6.2; B = 7.2; C = -12.7; D = 5.2; E = 1.7; F = -2.6; G = 2.8; H = i
structure: CCOc1cccc(NC(=O)/C(C#N)=C\c2cccnc2)c1
  A = -1.6; B = 0.7; C = x; D = -14.4; E = -0.5; F = -2.5; G = -4.5; H = i
structure: COc1ccc(-c2noc(CCC(=O)NCc3cccnc3)n2)cc1OC
  A = -0.7; B = 4.3; C = -11.1; D = 3.3; E = -15.7; F = 1.6; G = 18.1; H = i
structure: O=C(CNC(=O)c1ccc(Cl)cc1Cl)Nc1ccc(F)cc1
  A = -4.5; B = -8.3; C = x; D = -10.6; E = 0.7; F = -8.1; G = 3.4; H = i
structure: Cn1c(=O)c2ccccc2n(CC(=O)Nc2ccc3c(c2)OCCO3)c1=O
  A = 8.5; B = -13.5; C = -17.0; D = 0.5; E = 26.8; F = -5.6; G = -16.5; H = i
structure: CCCOc1cccc(-c2cc(-c3n[nH]c(=S)n3CC)c3ccccc3n2)c1
  A = -13.1; B = -19.4; C = -17.8; D = -3.2; E = x; F = 14.2; G = x; H = i
structure: CCCn1c(CN(C)Cc2ccccc2)nc2c1c(=O)n(C)c(=O)n2C
  A = 3.5; B = -11.7; C = -13.8; D = -1.6; E = 44.8; F = -7.8; G = -15.5; H = i
structure: CC(C)c1nc(C(=O)N2CCc3c([nH]c4ccccc34)C2c2ccccn2)cs1 (centres undefined)
  A = -0.1; B = -1.1; C = x; D = -1.5; E = -10.8; F = 7.8; G = -10.9; H = i
structure: C=CCC[C@@H](Cc1ccc(F)cc1)C(=O)OC[C@H](C)NC(=O)[C@H](CC=C)CC(=O)N(CCO)Cc1ccccc1
  A = 2.7; B = -16.1; C = 5.8; D = x; E = 16.2; F = x; G = -1.5; H = x
structure: O=[N+]([O-])c1cccc2ccc(/C=C/c3ccc(C(F)(F)F)cc3)nc12
  A = -1.2; B = 0.4; C = x; D = -8.0; E = 3.8; F = -4.3; G = 77.8*; H = i
structure: O=C1C2CCCN2C(c2cccs2)N1c1ccc(Cl)cc1 (centres undefined)
  A = -0.6; B = 5.0; C = -10.7; D = -0.7; E = -1.3; F = 1.8; G = 4.9; H = i
structure: CC(=O)c1ccc2cc3c(cc2c1)OCO3
  A = 3.2; B = 5.1; C = -15.8; D = x; E = -134.6; F = x; G = x; H = x
structure: CN(C)C(=O)c1ccc(NC(=O)COC(=O)/C=C/c2cccs2)cc1
  A = -1.5; B = -2.0; C = -6.5; D = x; E = x; F = x; G = 17.1; H = i
structure: N#Cc1c(NCc2ccccc2)ccnc1Cl
  A = -8.6; B = -14.2; C = x; D = x; E = 15.2; F = x; G = -2.5; H = i
structure: CCOC(=O)C1CCCN(C(=O)COc2ccc(C(=O)c3ccc(F)cc3)cc2)C1 (centres undefined)
  A = 2.3; B = -9.6; C = -1.2; D = x; E = 12.9; F = x; G = -2.0; H = x

A second format for 2 compounds above:
COc1cc2c(cc1NC(=O)c1ccccc1-c1ccccc1C(=O)O)-c1ccccc1C2
- MT1-MMP act inh: 0.7
- MT1-MMP act inh RFP: 1.5
- Yeast UUG start: -12.1
- PABP FP inh: x
- Env fusion inh: -7.4
- eIF4H FP inh: x
- CSC inhib: x
- Rce1 inh: x
Cc1cccc(CSc2ncnc3c2cnn3Cc2ccccc2)c1
- MT1-MMP act inh: -5.1
- MT1-MMP act inh RFP: -6.9
- Yeast UUG start: -12.4
- PABP FP inh: -5.7
- Env fusion inh: u
- eIF4H FP inh: -8.0
- CSC inhib: 9.7
- Rce1 inh: i

Compounds from the list above that have four or more nitrogen atoms:
Codes – A = MT1-MMP act inh; B = MT1-MMP act inh RFP; C = Yeast UUG start; D = PABP FP inh; E = Env fusion inh; F = eIF4H FP inh; G = CSC inhib; H = Rce1 inh
structure: Cc1c(C)n(CCc2ccccc2)c2ncnc(NN)c12
  A = -2.5; B = -1.4; C = -12.5; D = 11.1; E = -7.5; F = 6.2; G = 1.4; H = i
structure: Cc1cccc(CSc2ncnc3c2cnn3Cc2ccccc2)c1
  A = -5.1; B = -6.9; C = -12.4; D = -5.7; E = u; F = -8.0; G = 9.7; H = i
structure: COc1ccc(-c2noc(CCC(=O)NCc3cccnc3)n2)cc1OC
  A = -0.7; B = 4.3; C = -11.1; D = 3.3; E = -15.7; F = 1.6; G = 18.1; H = i
structure: CCCOc1cccc(-c2cc(-c3n[nH]c(=S)n3CC)c3ccccc3n2)c1
  A = -13.1; B = -19.4; C = -17.8; D = -3.2; E = x; F = 14.2; G = x; H = i
structure: CCCn1c(CN(C)Cc2ccccc2)nc2c1c(=O)n(C)c(=O)n2C
  A = 3.5; B = -11.7; C = -13.8; D = -1.6; E = 44.8; F = -7.8; G = -15.5; H = i
structure: CC(C)c1nc(C(=O)N2CCc3c([nH]c4ccccc34)C2c2ccccn2)cs1 (centres undefined)
  A = -0.1; B = -1.1; C = x; D = -1.5; E = -10.8; F = 7.8; G = -10.9; H = i

Remaining list, next part
Codes – A = MT1-MMP act inh; B = MT1-MMP act inh RFP; C = Yeast UUG start; D = PABP FP inh; E = Env fusion inh; F = eIF4H FP inh; G = CSC inhib; H = Rce1 inh
structure: CCC1CCCCN1S(=O)(=O)c1ccc(S(=O)(=O)N2CCN(S(=O)(=O)CC)CC2)cc1 (centres undefined)
  A = -7.6; B = -9.0; C = -15.2; D = -4.0; E = x; F = -0.1; G = -9.2; H = i
structure: CC1CCCN(C(=O)Nc2ccc(Br)cc2Cl)C1 (centres undefined)
  A = 5.4; B = 7.8; C = x; D = 2.1; E = -8.1; F = 0.8; G = 8.0; H = x
structure: CCCOc1ccccc1N/C(=N\S(=O)(=O)c1ccc(C)cc1)Nc1nc(C)cc(C)n1
  A = -8.2; B = -9.2; C = -11.1; D = x; E = x; F = x; G = 25.2; H = i
structure: O=C(O)C(c1ccccc1)N1CCCCC1 (centres undefined)
  A = 2.4; B = 6.3; C = x; D = 5.0; E = -1.5; F = 5.7; G = -3.9; H = x
structure: CC(=O)N1CCc2cc(Br)cc(S(=O)(=O)NCc3ccc(Cl)cc3)c21
  A = -1.8; B = -2.4; C = -4.4; D = 5.7; E = -1.3; F = 2.3; G = -13.8; H = i
structure: CCCn1nnnc1NCc1ccc(N(C)C)cc1
  A = -1.1; B = 1.0; C = -2.5; D = -3.3; E = -4.0; F = -6.9; G = -20.4; H = i
structure: CCc1nc2ccc(C(=O)NCc3ccccc3OC)cn2c1N(CCC(C)C)CCN(C)C
  A = -5.1; B = -0.9; C = -17.7; D = x; E = -28.6; F = x; G = x; H = x
structure: O=C(COC(=O)CCc1c[nH]c2ccccc12)NCc1ccccc1
  A = 5.7; B = 1.9; C = x; D = -13.8; E = x; F = -5.2; G = 5.5; H = i
structure: Nc1nnc(SCc2ccc([N+](=O)[O-])cc2)s1
  A = 3.0; B = -4.6; C = x; D = 1.9; E = -2.4; F = -4.9; G = 0.7; H = x
structure: COc1ccccc1OCCSc1nc2ccccc2n1CCC(=O)O
  A = -1.6; B = -0.4; C = -12.8; D = 1.1; E = -5.3; F = 5.6; G = -4.2; H = i
structure: COc1ccc(Cc2nnc(SCC(=O)Nc3ccccc3C)n(N)c2=O)cc1
  A = -2.7; B = -2.3; C = -17.1; D = x; E = -16.6; F = x; G = -10.9; H = i
structure: OC(CN1CCNCC1)Cn1ccc2ccccc21 (centres undefined)
  A = x; B = x; C = x; D = 8.4; E = x; F = -2.5; G = 5.3; H = i
structure: Cc1cccc(C)c1NC(=O)Nc1nc(C(N)c2ccccc2Cl)cs1 (centres undefined)
  A = -5.1; B = -4.6; C = -12.5; D = x; E = -30.2; F = x; G = x; H = x
structure: O=C(CSCc1ccccc1)N1CCN(S(=O)(=O)c2cccc(F)c2)CC1
  A = -7.7; B = -2.0; C = -19.8; D = x; E = 6.0; F = x; G = 1.6; H = i
structure: O=C(O)C1CCC(N2C(=O)c3c(Cl)c(Cl)c(Cl)c(Cl)c3C2=O)CC1 (centres undefined)
  A = x; B = x; C = x; D = 14.1; E = x; F = 9.2; G = -10.1; H = i
structure: COc1ccc(S(=O)(=O)N2CCCOC2CNC(=O)C(=O)NCc2ccco2)cc1C (centres undefined)
  A = 0.1; B = 3.8; C = -6.3; D = -2.3; E = -3.2; F = -4.8; G = -0.9; H = i
structure: CCOC(=O)C1CCCN(C(=O)c2cccc(S(=O)(=O)N(C)c3c(C)n(C)n(-c4ccccc4)c3=O)c2)C1 (centres undefined)
  A = -1.4; B = 4.3; C = -7.5; D = 39.0; E = x; F = 18.4; G = -10.8; H = i
